FGF22 binding – shifts melting point of recombinant human FGF22 | recombinant FGF22 thermal shift, SYPRO orange fluorescence; percent of sucrose octasulfate shift, DMSO zero | calls only at 9.99 µM | hit rate 1.5% among 340,000 | AID 651658;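 active = melting point raised past a set limit in the mean and every replicate; three in four hits are not shown here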
Target sequence (Q9HCT0 whole entry, looked up): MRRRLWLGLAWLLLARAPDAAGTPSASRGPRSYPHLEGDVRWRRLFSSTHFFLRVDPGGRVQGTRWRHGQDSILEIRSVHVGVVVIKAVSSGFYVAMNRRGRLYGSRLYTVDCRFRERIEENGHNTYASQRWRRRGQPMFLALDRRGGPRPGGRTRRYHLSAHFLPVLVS
Calls only; i = inactive. Not all compounds are listed; count on the stated rates, not on these rows.

SMILES	FGF22 binding
C[C@H](CO)N1C[C@H](C)[C@H](CN(C)Cc2ccc3c(c2)OCO3)Oc2ccc(NC(=O)c3ccncc3)cc2CC1=O	i
CCCNC(=O)N1C[C@@H](O)COC[C@H]2O[C@H](CC(=O)OC)CC[C@@H]21	i
CC(=O)N(C)C[C@H]1Oc2cc(-c3cccc(F)c3)ccc2S(=O)(=O)N([C@@H](C)CO)C[C@H]1C	i
COc1ccc(-c2cn(CC[C@@H]3CC[C@H](NS(=O)(=O)c4ccccc4C)[C@H](CO)O3)nn2)cc1	i
C[C@H](CO)N1C[C@H](C)[C@@H](CN(C)Cc2ccc3c(c2)OCO3)Oc2c(NC(=O)C3CCOCC3)cccc2C1=O	i
Cc1cc(C(=O)Nc2cccc3c2O[C@H](CN(C)S(=O)(=O)c2cn(C)cn2)[C@H](C)CN([C@H](C)CO)C3=O)n(C)n1	i
Cc1noc(C)c1NC(=O)NCC[C@@H]1CC[C@H](NC(=O)c2ccc(F)cc2)[C@H](CO)O1	i
C[C@H]1CN([C@@H](C)CO)C(=O)Cc2cc(NC(=O)CCCN(C)C)ccc2O[C@H]1CN(C)S(=O)(=O)c1ccc(Cl)cc1	i
CCCNC(=O)N(C)C[C@H]1Oc2ncc(-c3cccc(C#N)c3)cc2C(=O)N([C@H](C)CO)C[C@@H]1C	i
C[C@@H]1CN([C@H](C)CO)C(=O)c2c(c3ccccc3n2C)-c2ccccc2CO[C@@H]1CN(C)Cc1cccnc1	i
Cc1ccc(S(=O)(=O)Nc2ccc3c(c2)C(=O)N([C@H](C)CO)C[C@@H](C)[C@H](CN(C)C(=O)Nc2c(C)noc2C)OCCCC[C@@H](C)O3)cc1	i
COc1ccc(S(=O)(=O)Nc2ccc3c(c2)C(=O)N([C@H](C)CO)C[C@H](C)[C@@H](CN(C)Cc2ccc(C(=O)O)cc2)OCCCC[C@@H](C)O3)cc1	i
O=C(C[C@H]1CC[C@H](NC(=O)NC2CCCC2)[C@H](CO)O1)NCc1ccc(F)cc1	i
COc1cccc(S(=O)(=O)Nc2ccc3c(c2)[C@@H]2C[C@H](CC(=O)N4CCCCC4)O[C@@H](CO)[C@@H]2O3)c1	i
C[C@@H]1CN([C@H](C)CO)C(=O)c2cc(C#CC3CC3)cnc2O[C@H]1CN(C)C	i
C[C@H](CO)N1C[C@H](C)[C@@H](CN(C)Cc2ccccc2)Oc2ccc(NC(=O)CCN3CCOCC3)cc2C1=O	i
CC(C)NC(=O)N(C)C[C@@H]1Oc2ccc(NC(=O)CCCCCC(=O)Nc3ccccc3N)cc2C(=O)N([C@H](C)CO)C[C@H]1C	i
CCCC(=O)Nc1ccc2c(c1)OC[C@H](C)N(Cc1ccc(-c3ccccn3)cc1)C[C@H](C)[C@H](OC)CN(C)C2=O	i
CN(C)Cc1cn(CC[C@H]2CC[C@@H](NC(=O)Nc3ccccc3F)[C@@H](CO)O2)nn1	i
COc1ccc2c3c([nH]c2c1)[C@@H](CO)N(Cc1nccs1)CC31CN(C(=O)C2CCC2)C1	i
C[C@@H]1CCCCO[C@H](CN(C)S(=O)(=O)c2ccc(F)cc2)[C@@H](C)CN([C@H](C)CO)C(=O)c2cc(NC(=O)c3ccncc3)ccc2O1	i
CC(C)NC(=O)N1[C@@H](CO)[C@@H](c2ccccc2)C12CN(Cc1ccc(Cl)cc1)C2	i
COc1ccc2c3c([nH]c2c1)[C@@H](CO)N(C)CC31CN(C(=O)NC(C)C)C1	i
C[C@@H]1CN([C@@H](C)CO)C(=O)Cc2cc(NS(=O)(=O)c3ccccc3)ccc2O[C@@H]1CN(C)CC1CCCCC1	i
CCCNC(=O)N(C)C[C@@H]1Oc2cc(-c3cccnc3)ccc2S(=O)(=O)N([C@H](C)CO)C[C@H]1C	i
(cont.)
SMILES	FGF22 binding
COc1cccc(S(=O)(=O)Nc2ccc3c(c2)[C@H]2C[C@@H](CC(=O)NCC(F)(F)F)O[C@@H](CO)[C@H]2O3)c1	i
C[C@@H]1CCCCO[C@@H](CN(C)C(=O)C2CCCCC2)[C@H](C)CN([C@H](C)CO)C(=O)c2cc(NC(=O)CCC(F)(F)F)ccc2O1	i
COc1ccc(S(=O)(=O)N(C)C[C@H]2Oc3c(NS(=O)(=O)c4ccc(Cl)cc4)cccc3C(=O)N([C@@H](C)CO)C[C@@H]2C)cc1	i
O=C(c1cccnc1)N1CCCCN2[C@H](CO)[C@H](c3ccc(C#Cc4cccnc4)cc3)[C@@H]2C1	i
CC(C)C#Cc1ccc2c(c1)O[C@@H](CN(C)Cc1ccccc1)[C@H](C)CN([C@H](C)CO)S2(=O)=O	i
C[C@@H](O)C#Cc1ccc([C@@H]2[C@H]3CN(CC4CC4)CCCCN3[C@H]2CO)cc1	i
CNC[C@H]1Oc2cc(-c3cncnc3)ccc2S(=O)(=O)N([C@@H](C)CO)C[C@H]1C	i
Cc1cccc(S(=O)(=O)N2C[C@@H](O)COC[C@H]3O[C@H](CC(=O)N4CCN(C)CC4)CC[C@@H]32)c1	i
Cc1noc(C)c1S(=O)(=O)Nc1ccc2c(c1)C(=O)N([C@@H](C)CO)C[C@@H](C)[C@@H](CN(C)C(=O)Nc1cccc3ccccc13)O2	i
CCC(=O)N(C)C[C@H]1Oc2ncc(C#Cc3ccc(OC)cc3)cc2C(=O)N([C@H](C)CO)C[C@H]1C	i
COc1ccc(C[C@H]2CCc3cnnn3COC[C@@H](Cc3ccccc3)NC2=O)cc1	i
Cc1noc(C)c1NC(=O)N(C)C[C@H]1OCCCC[C@H](C)Oc2ccc(NC(=O)NC3CCCCC3)cc2C(=O)N([C@H](C)CO)C[C@@H]1C	i
O=C(O)CCCCCCC(=O)Nc1ccc(C2OC(CSc3ccncc3)CC(c3ccccc3)O2)cc1 (stereo not drawn)	i
Cc1noc(C)c1NC(=O)N(C)C[C@H]1Oc2ncc(C#CC3CCCC3)cc2C(=O)N([C@H](C)CO)C[C@H]1C	i
C[C@H]1CN([C@@H](C)CO)C(=O)c2cc(NS(=O)(=O)c3ccc(F)cc3)ccc2O[C@@H]1CN(C)S(=O)(=O)c1cn(C)cn1	i
Cc1ccc(S(=O)(=O)Nc2ccc3c(c2)C(=O)N([C@H](C)CO)C[C@@H](C)[C@H](CN(C)S(=O)(=O)c2c(C)noc2C)OCCCC[C@@H](C)O3)cc1	i
Cc1noc(C)c1NC(=O)Nc1cccc2c1O[C@@H](CN(C)CC1CCCCC1)[C@H](C)CN([C@@H](C)CO)C2=O	i
COc1ccc(CN(C)C[C@H]2Oc3ccc(NC(=O)Nc4ccccc4)cc3C(=O)N([C@H](C)CO)C[C@H]2C)cc1	i
CC(C)CC#Cc1ccc2c(c1)O[C@@H](CN(C)C(=O)C1CCCCC1)[C@@H](C)CN([C@H](C)CO)S2(=O)=O	i
C[C@H](CO)N1C[C@H](C)[C@@H](CN(C)Cc2ccc(Cl)c(Cl)c2)Oc2ccc(NC(=O)CCCN(C)C)cc2CC1=O	i
O=C(C[C@H]1C[C@H]2c3cc(NC(=O)C4CCC4)ccc3O[C@H]2[C@H](CO)O1)NCc1cccc(F)c1	i
CCCNC(=O)N1[C@H](CO)[C@@H](c2ccccc2)C12CN(C(=O)CC)C2	i
C[C@@H]1CN([C@H](C)CO)C(=O)c2cc(C3=CCCCC3)cnc2O[C@H]1CN(C)C(=O)c1ccncc1	i
CCC(=O)N1[C@@H]2Cn3c(cccc3=O)[C@H]1[C@@H](C(=O)NC1CCC1)[C@@H]2CO	i
CO[C@H]1CN(C)C(=O)c2cc(NC(=O)C3CCC3)ccc2OC[C@H](C)N(C)C[C@H]1C	i
Next records follow.
SMILES	FGF22 binding
CNC[C@H]1Oc2c(NC(=O)Nc3cccc4ccccc34)cccc2C(=O)N([C@H](C)CO)C[C@@H]1C	i
C[C@H](CO)N1C[C@H](C)[C@H](CN(C)C(=O)Cc2ccccc2)Oc2ncc(-c3cncnc3)cc2C1=O	i
CCCN(C)C[C@@H]1Oc2cc(C#Cc3ccccc3)ccc2S(=O)(=O)N([C@@H](C)CO)C[C@H]1C	i
COc1ccc2c3c(n(C)c2c1)[C@@H](CO)NCC31CN(CC2CCOCC2)C1	i
CN1CCN(C(=O)C2=C[C@@H](C3CC3)C[C@@H](OCCCCO)O2)CC1	i
O=C(Nc1ccccc1Cl)N1C[C@H]2[C@@H](c3ccccc31)[C@@H](CO)N2C(=O)c1cccnc1	i
O=C(C[C@H]1CC[C@H]2[C@@H](COC[C@H](O)CN2Cc2ccc(F)cc2)O1)NCc1ccccc1Cl	i
CO[C@@H]1CN(C)C(=O)c2cc(NC(=O)C3CCOCC3)ccc2OC[C@@H](C)N(S(=O)(=O)c2ccc(C)cc2)C[C@H]1C	i
C[C@@H]1CN([C@@H](C)CO)C(=O)c2cc(-c3cncnc3)cnc2O[C@@H]1CN(C)C(=O)c1ccccc1F	i
COc1ccc(NC(=O)N(C)C[C@@H]2Oc3ncc(C#CC(C)C)cc3C(=O)N([C@@H](C)CO)C[C@H]2C)cc1	i
Cc1noc(C)c1NC(=O)N(C)C[C@H]1OCc2ccccc2-c2ccccc2C(=O)N([C@H](C)CO)C[C@H]1C	i
C[C@H](CO)N1C[C@H](C)[C@H](CN(C)S(=O)(=O)c2cccs2)Oc2ncc(C#Cc3ccc(F)cc3)cc2C1=O	i
COc1ccccc1-c1cnc2c(c1)C(=O)N([C@H](C)CO)C[C@H](C)[C@H](CN(C)C(=O)c1cccnc1)O2	i
Cc1ccc[n+](C2=C([O-])c3ccccc3C(=O)C2=O)c1	i
COc1cccc(S(=O)(=O)N2CCCCN3[C@H](CO)[C@H](c4ccc(-c5ccccc5)cc4)[C@@H]3C2)c1	i
COc1ccc(S(=O)(=O)N(C)C[C@@H]2Oc3ccc(NS(C)(=O)=O)cc3CC(=O)N([C@H](C)CO)C[C@H]2C)cc1	i
C[C@@H]1CCCCO[C@H](CN(C)C(=O)c2ccncc2)[C@H](C)CN([C@H](C)CO)C(=O)c2cc(NS(=O)(=O)c3ccccc3)ccc2O1	i
CCNC(=O)[C@@H]1[C@@H](CO)[C@@H]2Cn3c(ccc(-c4ccc(OC)cc4)c3=O)[C@H]1N2S(C)(=O)=O	i
COc1ccc(NC(=O)N(C)C[C@@H]2OCCCC[C@H](C)Oc3ccc(NS(=O)(=O)c4c(C)noc4C)cc3C(=O)N([C@@H](C)CO)C[C@@H]2C)cc1	i
C/C=C/c1cnc2c(c1)C(=O)N([C@H](C)CO)C[C@H](C)[C@@H](CN(C)C(=O)c1cnccn1)O2	i
COc1ccc(NC(=O)N(C)C[C@@H]2Oc3ncc(C#CCN(C)C)cc3C(=O)N([C@@H](C)CO)C[C@H]2C)cc1	i
O=C(C[C@@H]1CC[C@@H]2[C@H](COC[C@H](O)CN2S(=O)(=O)c2ccc(Cl)cc2)O1)NCCN1CCCCC1	i
C[C@H]1CN([C@@H](C)CO)C(=O)c2cccc(NC(=O)Nc3ccc(F)cc3)c2O[C@H]1CN(C)C(=O)Nc1ccccc1	i
C[C@@H]1CN([C@@H](C)CO)C(=O)c2cc(-c3ccncc3)cnc2O[C@H]1CN(C)C(=O)NC1CCCC1	i
COc1cccc(NC(=O)C[C@@H]2CC[C@H]3[C@@H](COc4ccc(NC(=O)C5CC5)cc4C(=O)N3C)O2)c1	i

12 neighbouring records from above, for reference:
SMILES	FGF22 binding
Cc1ccc[n+](C2=C([O-])c3ccccc3C(=O)C2=O)c1	i
COc1cccc(S(=O)(=O)N2CCCCN3[C@H](CO)[C@H](c4ccc(-c5ccccc5)cc4)[C@@H]3C2)c1	i
COc1ccc(S(=O)(=O)N(C)C[C@@H]2Oc3ccc(NS(C)(=O)=O)cc3CC(=O)N([C@H](C)CO)C[C@H]2C)cc1	i
C[C@@H]1CCCCO[C@H](CN(C)C(=O)c2ccncc2)[C@H](C)CN([C@H](C)CO)C(=O)c2cc(NS(=O)(=O)c3ccccc3)ccc2O1	i
CCNC(=O)[C@@H]1[C@@H](CO)[C@@H]2Cn3c(ccc(-c4ccc(OC)cc4)c3=O)[C@H]1N2S(C)(=O)=O	i
COc1ccc(NC(=O)N(C)C[C@@H]2OCCCC[C@H](C)Oc3ccc(NS(=O)(=O)c4c(C)noc4C)cc3C(=O)N([C@@H](C)CO)C[C@@H]2C)cc1	i
C/C=C/c1cnc2c(c1)C(=O)N([C@H](C)CO)C[C@H](C)[C@@H](CN(C)C(=O)c1cnccn1)O2	i
COc1ccc(NC(=O)N(C)C[C@@H]2Oc3ncc(C#CCN(C)C)cc3C(=O)N([C@@H](C)CO)C[C@H]2C)cc1	i
O=C(C[C@@H]1CC[C@@H]2[C@H](COC[C@H](O)CN2S(=O)(=O)c2ccc(Cl)cc2)O1)NCCN1CCCCC1	i
C[C@H]1CN([C@@H](C)CO)C(=O)c2cccc(NC(=O)Nc3ccc(F)cc3)c2O[C@H]1CN(C)C(=O)Nc1ccccc1	i
C[C@@H]1CN([C@@H](C)CO)C(=O)c2cc(-c3ccncc3)cnc2O[C@H]1CN(C)C(=O)NC1CCCC1	i
COc1cccc(NC(=O)C[C@@H]2CC[C@H]3[C@@H](COc4ccc(NC(=O)C5CC5)cc4C(=O)N3C)O2)c1	i

Remaining list, next part.
SMILES	FGF22 binding
COc1ccc(NC(=O)Nc2ccc3c(c2)CC(=O)N([C@H](C)CO)C[C@H](C)[C@H](CN(C)C(=O)NC2CCCCC2)O3)cc1	i
C[C@H]1CN([C@@H](C)CO)S(=O)(=O)c2ccc(-c3ccc(C(=O)N(C)C)cc3)cc2O[C@H]1CN(C)Cc1ccccc1C(=O)O	i
O=C(N[C@H]1CC[C@H](CCn2cc(-c3cccnc3)nn2)O[C@H]1CO)c1ccccc1F	i
CC(C)NC(=O)N(C)C[C@@H]1OCCCC[C@@H](C)Oc2ccc(N(C)C)cc2C(=O)N([C@@H](C)CO)C[C@@H]1C	i
O=C(CN1CCOCC1)N1CCCCN2[C@H](CO)[C@H](c3ccc(-c4ccccc4)cc3)[C@@H]2C1	i
COC(=O)C[C@H]1C[C@H]2c3cc(NS(C)(=O)=O)ccc3O[C@H]2[C@H](CO)O1	i
OC[C@@H]1CC[C@@H]2O[C@H](CCc3ccc(C#CCc4ccccc4)cc3)[C@@H](n3cc(-c4ccccc4)nn3)C[C@@H]2O1	i
C[C@@H]1CN([C@H](C)CO)C(=O)Cc2cc(NS(=O)(=O)c3cccs3)ccc2O[C@H]1CN(C)Cc1ccc(C(F)(F)F)cc1	i
C[C@@H]1CCCCO[C@@H](CN(C)C(=O)NC2CCCCC2)[C@@H](C)CN([C@H](C)CO)C(=O)c2cc(NC(=O)NC3CCCCC3)ccc2O1	i
CNC[C@@H]1Oc2cc(C#Cc3cccnc3)ccc2S(=O)(=O)N([C@@H](C)CO)C[C@H]1C	i

Compound activity (PubChem)
